# Screening results from PubChem BioAssay.
# TRPML1 inh: human mucolipin-1 channel inhibition; Q9GZU1; TRPML1-inducible cells, Ca2+ dye fluorescence, FDSS; stronger effect = lower value; inhibition of EC80 agonist-evoked calcium signal; activity change, negative = inhibition, % (no concentration beside the values); hit rate 0.02% among 390,000; AID 624415; in the data active means activity change below about -50%; inconclusive means about -30% to -50%; inactive means above about -30%;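 note: stimulus is agonist 54-4 at its EC80 concentration; % is set by controls: 0 for no effect and ±100 for the full control effect; compound concentration not given in the record; the text of the record puts the active cut at -80%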
# Target sequence (Q9GZU1 whole entry, looked up): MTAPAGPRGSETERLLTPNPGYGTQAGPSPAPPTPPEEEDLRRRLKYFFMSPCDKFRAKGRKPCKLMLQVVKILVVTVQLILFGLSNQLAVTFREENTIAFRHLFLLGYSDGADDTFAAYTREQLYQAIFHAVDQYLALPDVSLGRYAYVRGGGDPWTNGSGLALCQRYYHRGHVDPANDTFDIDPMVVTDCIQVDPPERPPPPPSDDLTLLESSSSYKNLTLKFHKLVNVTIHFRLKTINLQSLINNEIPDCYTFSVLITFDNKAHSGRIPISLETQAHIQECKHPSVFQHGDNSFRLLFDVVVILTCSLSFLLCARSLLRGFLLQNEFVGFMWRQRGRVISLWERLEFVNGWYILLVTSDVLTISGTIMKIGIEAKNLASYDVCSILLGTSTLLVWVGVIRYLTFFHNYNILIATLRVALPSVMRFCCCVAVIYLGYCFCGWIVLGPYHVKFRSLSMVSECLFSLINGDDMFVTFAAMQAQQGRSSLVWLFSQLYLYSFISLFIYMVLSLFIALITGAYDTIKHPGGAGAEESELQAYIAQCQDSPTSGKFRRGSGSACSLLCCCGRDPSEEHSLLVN
#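 Tet-induced TRPML1-DL cells loaded with Ca8 no-wash calcium dye were read kinetically on FDSS. Compound addition was followed by EC80 agonist 54-4 (4 uM final); inhibition was read over 110 s.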
# TRPML1 ag: activates the human TRPML1 channel; activation, % (concentration not given with the values); AID 624414; TRPML1-expressing cells, Ca2+ dye fluorescence, FDSS; host cell line not named in the record; reference of the full effect not given here; hit rate 0.12% among 410,000; in the data active = activation above about 50%; inconclusive = about 30% to 50%; inactive = below about 30%; note: 0% is about no effect; the text of the record puts the active cut at 80%
#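 In this qHTS format, compounds were pin-transferred onto Ca8-dye-loaded TRPML1-DL cells induced with Tet overnight, and intracellular Ca2+ fluorescence was recorded kinetically for 110 s after a 10 s baseline. A subsequent 4uM final 54-4 (EC80) addition followed by a second 110 s read served as the antagonist phase.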
# CtBP-E1A blk: blocks the CtBP interaction with E1A | AlphaScreen GST-E1A/His-CtBP binding, 1536-well; stronger effect = lower value; control for the full effect not named in the record | activity change, % (no concentration beside the values) | hit rate 0.49% among 340,000 | AID 651724; in the data active means activity change below about -65%; inconclusive means about -30% to -65%; inactive means above about -30%; note: % is set by controls: 0 for no effect and ±100 for the full control effect; compound concentration not given in the record
#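 In 5 uL wells, 23 nL compound meets equimolar GST-E1A and His-CtBP (5X stock 125 nM each) for 2 h, 37 °C. Beads (5X, 50 ug/mL) then 1 h, 37 °C, dark.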
# PINK1 modulator: changes PINK1 expression; PINK1 immunofluorescence, high-content cytometry, 24 h; Potency, µM (highest dose often 76.6 µM), without a hit: at the highest dose activation (PINK1 increase), actives largely listed as activators; hit rate 0.2% among 410,000; AID 624263; active = well fitted activation curve with a large enough effect; inconclusive = small, poorly fitted or top-dose-only effect; inactive = flat fitted curve, though single readings scatter; cell line not stated here;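 note: potency is the fitted concentration of half-maximal effect; % of control where 0% means no effect; nearly all actives have a fitted effect of over 65% in size; a mitochondrial uncoupler was the plate control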
#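 Decision-based qHTS: stable cells, 24 h exposure to five compound concentrations, CCCP as control. Fixed cells stained for PINK1 plus nuclear, mitochondrial and cell markers, cytometer read.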
# D2 agonist: agonists of human D2 dopamine receptor (beta-arrestin). P14416. DiscoveRx PathHunter D2 beta-arrestin, luminescence, 90 min; 100% = 57 uM dopamine signal. activation, % (concentration not given with the values). hit rate 0.084% among 360,000. AID 624465; in the data active = activation above about 40%; inconclusive = about 15% to 40%; inactive = below about 15%; note: compound concentration not given in the record; the text of the record calls up to 30% inactive
#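 DiscoveRx PathHunter D2 beta-arrestin cells (2,100/well) attached overnight, then compound-stimulated 90 min at 37 C in HBSS/10 mM HEPES/0.1% Tween-20 buffer; beta-galactosidase complementation read by luminescence after 1 h at ambient temperature. Dopamine 57 uM final (EC100) as control.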
# Six1-Eya2 inh: Six1/Eya2 interaction inhibition; Q15475+O00167; AlphaScreen GST-Six1/His-Eya2 binding, biochemical; stronger effect = lower value; control for the full effect not named in the record; activity change, % (no concentration beside the values); hit rate 0.56% among 360,000; AID 651725; in the data active = activity change below about -65%; inconclusive = about -30% to -65%; inactive = above about -30%; note: % is set by controls: 0 for no effect and ±100 for the full control effect; compound concentration not given in the record
#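 Six1/Eya2 binding was read as AlphaScreen signal after compounds were pinned into GST-Six1 plus His-tagged Eya2 (5X stock 250/500 nM) in pH 8.0 Tris/NaCl/TCEP buffer, beads added, then incubated 1 h, 37 C, dark.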
# The depositor's hits bear a star; · = not tested or not shown; & = joins results of further samples; [ ] = dose if it differs, or a comment.
# Sample of the layout (six entries):
# Order of values: TRPML1 inh | TRPML1 ag | CtBP-E1A blk | PINK1 modulator | D2 agonist | Six1-Eya2 inh
- CCNCC(=O)N1c2ccccc2CCc2ccc(NC(=O)OCC)cc21
→ 41 | -0.3 | -8 | 9.9% | -4.7 | -15
- O=C(CN1C(=O)CCn2nc(-c3ccccc3)cc21)NCc1ccccc1
→ 2 | -0.6 | · | -0.1% | · | ·
- c1ccc(-n2ncc3c2ncn2nc(CSc4nc5ccccc5s4)nc32)cc1
→ 0 | 0.6 | 1 | 4.8% | 0.7 | -1
- Cc1ccc(NC(=O)COC(=O)CCc2nc3ccccc3n2-c2ccccc2)c(C)c1
→ -6 | 0.2 | 5 | 1.7% | -0.2 | 5
- CNC(=O)c1c(Cl)cnn1-c1ccc(C)cc1
→ 5 | 0.2 | -10 | 3.1% | -3.5 | -12
- Oc1c(Cl)cc(Oc2cc(Cl)c(O)c(CN3CCOCC3)c2)cc1CN1CCOCC1
→ 19 | -0.3 | -13 | 3.1% | -2.5 | -15

# Main list, repeating the preview:
# Order of values: TRPML1 inh | TRPML1 ag | CtBP-E1A blk | PINK1 modulator | D2 agonist | Six1-Eya2 inh
- CCNCC(=O)N1c2ccccc2CCc2ccc(NC(=O)OCC)cc21
→ 41 | -0.3 | -8 | 9.9% | -4.7 | -15
- O=C(CN1C(=O)CCn2nc(-c3ccccc3)cc21)NCc1ccccc1
→ 2 | -0.6 | · | -0.1% | · | ·
- c1ccc(-n2ncc3c2ncn2nc(CSc4nc5ccccc5s4)nc32)cc1
→ 0 | 0.6 | 1 | 4.8% | 0.7 | -1
- Cc1ccc(NC(=O)COC(=O)CCc2nc3ccccc3n2-c2ccccc2)c(C)c1
→ -6 | 0.2 | 5 | 1.7% | -0.2 | 5
- CNC(=O)c1c(Cl)cnn1-c1ccc(C)cc1
→ 5 | 0.2 | -10 | 3.1% | -3.5 | -12
- Oc1c(Cl)cc(Oc2cc(Cl)c(O)c(CN3CCOCC3)c2)cc1CN1CCOCC1
→ 19 | -0.3 | -13 | 3.1% | -2.5 | -15
- COc1cccc(CNC(=O)Nc2cn(CC(C)C)c(=O)c3ccccc23)c1
→ 9 | 0.9 | · | -5.5% | · | ·
- CCCCNc1nc2c(c(=O)n(C)c(=O)n2C)n1Cc1cccc(OC)c1
→ -13 | 1.2 | -5 | -3.2% | -0.8 | -8
- CCC(c1nnnn1Cc1cccs1)N1CCN(C2CCCC2)CC1 (stereo not drawn)
→ 3 | -0.5 | 29 | -1.7% | -3.4 | 18
- CCOc1ccc(NC(=O)N2CCC(CN3CCC(C)CC3)CC2)cc1
→ 3 | 1.5 | · | -2.0% | · | ·
- CN1C2C(Br)CCCCN2c2ccc(F)cc2S1(=O)=O (stereo not drawn)
→ -7 | -0.2 | -6 | 2.4% | -1.8 | 10
- CC1(C)CC2CC(C)(CN2C(=O)COC(=O)c2n[nH]c(=O)c3ccccc23)C1 (stereo not drawn)
→ 1 | 2.4 | 0 | 4.3% | -2.2 | 23
- Cc1ccc(S(=O)(=O)N(C)C)cc1NC(=O)CCNC(=O)c1ccccc1Cl
→ -5 | -0.3 | 15 | 0.2% | -2.4 | 9
- CN(C(=O)CSc1nc2ccccc2n1Cc1cccc(C(F)(F)F)c1)c1ccccc1
→ -18 | 0.6 | · | 28% | · | ·
- COc1ccc(CNC(=O)CSc2ncc3c(n2)-c2cc(Cl)ccc2N(C)S3(=O)=O)cc1
→ -10 | 1.0 | · | 2.0% | · | ·
- Cc1c(C(=O)N2CCC(C)CC2)c(S(=O)(=O)NCc2ccc(Cl)cc2)c(C)n1C
→ -18 | 1.8 | · | -1.6% | · | ·
- O=C(CSc1cc(Cl)ccc1Cl)NCC1CCCO1 (stereo not drawn)
→ 5 | -0.3 | 3 | 11%[38.3 µM] | -2.4 | 2
- CCN1CCN(c2cc(C)c3cc(NC(=O)c4cc(OC)cc(OC)c4)ccc3n2)CC1
→ 12&-13 | 1.1&1.2 | -27 | 0.0%&6.9% | -5.8 | -3
- CC(C)OC(=O)c1c(F)c(F)c(N2CCOCC2)c(F)c1F
→ 0 | 0.3 | 47 | · | 0.7 | 37
- COc1ccc(C2NC(Cc3ccccc3)(C(=O)O)C3C(=O)N(c4ccccc4OC)C(=O)C23)cc1 (stereo not drawn)
→ -25 | 0.7 | -1 | 1.4% | 3.1 | -5
- CC(C)(C)c1ccc(-c2nc(SCC(=O)Nc3ccc(Cl)cc3)[nH]c(=O)c2C#N)cc1
→ -11 | 1.8 | · | 1.5% | · | ·
- COc1ccc(N2CCN(C(=O)C(=O)c3cn(CC(=O)N4CCCC4)c4ccccc34)CC2)cc1
→ -12 | -0.2 | 1 | 9.7% | -0.1 | -7
- CC(C)c1ccc(NC(=O)CSc2nc(=O)n(Cc3ccccn3)c3c2CCC3)cc1
→ 3 | 2.1 | · | -0.3% | · | ·
- Cc1cc(C)c(NC(=O)Cn2nnc(C(=O)Nc3ccc(F)cc3F)c2N)c(C)c1
→ -4&-8 | -0.3&1.1 | 7 | 7.2%&19% | 0.1 | 1
- Cc1nnn(C23CC4CC(CC(CC(=O)Nc5ccc(C)c(C)c5)(C4)C2)C3)n1
→ 11 | 0.7 | -3 | -3.2% | 0.4 | -1
- CC(C)C(=O)N1CCN(c2ccccc2NC(=S)NC(=O)Cc2ccccc2)CC1
→ 36 | 0.8 | 1 | 0.9% | 0.3 | -5
- Cc1ccc(S(=O)(=O)N2CC=C(c3c(C)n(C)c4ccccc34)CC2)cc1
→ -23 | -0.3 | -20 | -0.2% | -1.1 | -2
- O=C(CCn1c(=O)c2cccn2c2ccc(F)cc21)NCc1ccccc1F
→ -12 | 3.0 | · | 0.1% | · | ·
- O=C(CCc1nnc2n(Cc3ccc(F)cc3)c(=O)c3ccccc3n12)NCCCN1CCOCC1
→ -23 | -0.2 | -19 | 1.9% | -1.6 | -1
- CCNNC(=O)C(O)(Cc1ccccc1)Cc1ccccc1
→ -11 | 1.8 | 5 | 3.3% | -0.1 | -3
- O=C(Nc1ccc([N+](=O)[O-])cc1Br)c1cc2ccccc2nc1Cl
→ 17 | -0.6 | 4 | 10% | 1.7 | -3
- COc1ccc(S(=O)(=O)N2CCOCC2)cc1NC(=O)c1ccncc1
→ 9 | -0.9 | · | 1.7% | 3.9 | 3
- CCCCCn1c(=O)[nH]c2cc(C(=O)N3CCN(Cc4ccc5c(c4)OCO5)CC3)ccc2c1=O
→ -14 | -0.2 | -2 | 2.2% | 4.5 | -2
- O=C(NCc1cccnc1)c1ccc(NS(=O)(=O)c2cccc([N+](=O)[O-])c2)cc1
→ -9 | -0.1 | 11 | -3.8% | -4.2 | 0
- CC1Cc2ccccc2N1C(=O)COC(=O)c1ccc(O)cc1 (stereo not drawn)
→ · | · | 2 | 0.5% | -2.4 | 2
- COc1ccc(-c2cc(C(=O)NCCc3ccc(S(N)(=O)=O)cc3)c3ccccc3n2)cc1
→ -2 | -1.0 | 0 | 4.3% | 1.0 | -13
- O=C(Oc1cccc2cccnc12)c1ccc(Br)o1
→ 15 | 0.2 | -8 | -1.9% | -3.2 | -23
- CCOC(=O)CSCc1nc(-c2ccc(Cl)cc2)oc1C
→ 0 | -0.1 | -4 | 1.8% | 5.0 | 16
- O=C(CSc1ccccn1)c1ccc(F)cc1
→ 3 | 0.8 | 4 | -2.5%[38.3 µM] | 0.1 | 5
- Cc1ccc(NC(=O)C(C)Sc2nc(=O)cc(N)n2-c2ccccc2)cc1 (stereo not drawn)
→ -16&-3 | 0.0&-0.4 | 0 | -0.5%&-0.4% | -2.7 | 0

# Some of these compounds in order of their number in TRPML1 inh, low to high.
smiles,TRPML1 inh
Cc1c(C(=O)N2CCC(C)CC2)c(S(=O)(=O)NCc2ccc(Cl)cc2)c(C)n1C,-18
COc1ccc(N2CCN(C(=O)C(=O)c3cn(CC(=O)N4CCCC4)c4ccccc34)CC2)cc1,-12
CN1C2C(Br)CCCCN2c2ccc(F)cc2S1(=O)=O (stereo not drawn),-7
